Compound activity: PubChem BioAssay, National Center for Advancing Translational Sciences (NCATS)
Sfp inh: blocks B. subtilis Sfp PPTase activity; Q9F4F7; Biochemical Sfp PPTase activity, qHTS; Potency, µM, for inactives: max response, negative = inhibition, actives largely listed as inhibitors; actives 3.5% (n = 310,000); AID 1490; active = well fitted inhibition curve with a large enough effect; inconclusive = small, poorly fitted or top-dose-only effect, or another doubt; inactive = no such curve, though single readings can be large or run the other way;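 also: the enzyme is Sfp with the accession as filed and its product quenches rhodamine fluorescence; potency is read from the fitted curve at half-maximal effect; 0% = enzyme reaction without inhibitor and -100% = no enzyme wells; top concentration of the series not given in the record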
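Fluorescence-quenching assay: 15 nM Sfp-PPTase preincubated 15 min at room temperature with compound, then 5 uM rhodamine-CoA and 12.5 uM BHQ-2-labelled YbbR peptide added. Fluorescence (ex 525/em 598 nm) read at start and after 30 min; difference gives rate.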
CtBP-E1A blk: CtBP/E1A binding inhibition; AlphaScreen GST-E1A/His-CtBP binding, 1536-well; stronger effect = lower value; control for the full effect not named in the record; activity change, % (no concentration beside the values); actives 0.49% (n = 340,000); AID 651724; in the data active means activity change below about -65%; inconclusive means about -30% to -65%; inactive means above about -30%; also: % is scaled to controls: 0 for no effect and ±100 for the full control effect; compound concentration not given in the record
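Homogeneous bead-based format: GST-tagged E1A captured on glutathione donor beads, His-tagged CtBP on nickel acceptor beads; compounds precede bead addition by 2 h at 37 °C.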
Menin MLL FP FL: menin-MLL binding inhibition, fluorescein peptide; Fluorescence polarization, fluorescein-MLL peptide displacement from menin; FP activity change, % at 61.4 µM; 290,000 tested, under 10 active; AID 1766; inconclusive = falling polarisation curve, or a change in total fluorescence; inactive = total fluorescence flat and polarisation flat or rising; no compound was filed as active; the % refers to the polarisation; negative = inhibition;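 also: % of control where 0% means no effect; inhibitors lower the polarisation; unlabelled MLL peptide was the positive control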
gsp agonist: agonists of gsp mutant (McCune-Albright syndrome). actives 0.13% (n = 340,000). Potency, µM (series often up to 76.9 µM), without a hit: top-dose activation (cAMP increase), usual class: activators. gsp mutant cells, cAMP HTRF, 30 min; control for the full effect not named in the record; active = well fitted activation curve with a large enough effect; inconclusive = small, poorly fitted or top-dose-only effect, or another doubt; inactive = no such curve, though single readings can be large or run the other way; cell line not stated here;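 also: phosphodiesterase inhibitor Ro 20-1724 added with compounds to block cAMP breakdown; potency is read from the fitted curve at half-maximal effect; nearly all actives have a fitted effect of over 60% in size; about a fifth of the inactives were tested at one dose only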
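Cells in DMEM/10% FBS with G418 were pretreated with compounds in DMSO plus […] (300 uM stock) for 30 min at 37C. cAMP was measured by HTRF (cAMP-d2 plus anti-cAMP antibody-K) after 30 min at room temperature.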
gsp antag: gsp mutant antagonism. gsp-mutant cells, cAMP HTRF, 30 min; control for the full effect not named in the record. Potency, µM (series often up to 76.9 µM), for the others: at the top dose activity change, negative = inhibition, hits mostly inhibitors. actives 0.4% (n = 340,000). AID 624288; active = falling curve of any shape with a large fitted effect; inconclusive = falling curve, mostly with a smaller effect; inactive = flat or rising curve; cell line not stated here;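 also: intracellular cAMP measured with PDE inhibitor Ro 20-1724 present during compound exposure; potency is read from the fitted curve at half-maximal effect; % is scaled to controls: 0 for no effect and ±100 for the full control effect; nearly all actives have a fitted effect of over 65% in size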
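Cells in G418 medium, seeded 16-24 h, 37C; buffer exchange to DPBS + 1 mM CaCl2, 0.5 mM MgCl2, 0.05% BSA; cpds in DMSO + […] (300 uM stock), 30 min 37C; HTRF cAMP detection.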
ClpP mod: qHTS Assay for Activators of ClpP | ATP-dependent Clp protease proteolytic subunit (Bacillus subtilis (strain 168)), P80244 | purified B. subtilis ClpP, FRET peptide cleavage, 20 min | Potency, µM (doses to about 57.5 µM), for the others: at the highest dose activity change, negative = active | actives 1.9% (n = 340,000) | AID 651965, 2013; active = well fitted falling curve with a large enough effect; inconclusive = small, poorly fitted or top-dose-only effect; inactive = no such curve, though single readings can be large or run the other way; also: potency is read from the fitted curve at half-maximal effect; the source files actives as falling curves though it sought activators and does not explain the sign; nearly all actives have a fitted effect of over 65% in size; many hits overshoot -100%
Target sequence (P80244 whole entry, looked up): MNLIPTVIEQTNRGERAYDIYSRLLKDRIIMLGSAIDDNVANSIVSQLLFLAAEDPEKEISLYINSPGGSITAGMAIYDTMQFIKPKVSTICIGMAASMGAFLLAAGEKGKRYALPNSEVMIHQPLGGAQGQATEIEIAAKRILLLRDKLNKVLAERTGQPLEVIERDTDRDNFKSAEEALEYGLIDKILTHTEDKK
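Purified B. subtilis ClpP, 10 microg/mL final in Tris/HCl pH8 with KCl, BSA, glycerol and Tween-20, cleaved an Abz/nitrotyrosine-quenched decapeptide. Fluorescence (ex 320, em 430) was read at 0 and 20 min at room temperature. Delta was normalized to 5.8 microM ADEP and DMSO/no-enzyme controls.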
TRPV1 PAM: enhances activation of the human vanilloid receptor TRPV1; TRPV1-expressing cells, Fluo-8 calcium influx, capsaicin EC20 potentiation; host cell line not named in the record; control for the full effect not named in the record; potentiation, % at 8.33 µM; actives 0.02% (n = 320,000); active means potentiation above 80%; inconclusive means 30% to 80%; inactive means below 30%; also: 0% is about no effect
Target sequence (Q8NER1 whole entry, looked up): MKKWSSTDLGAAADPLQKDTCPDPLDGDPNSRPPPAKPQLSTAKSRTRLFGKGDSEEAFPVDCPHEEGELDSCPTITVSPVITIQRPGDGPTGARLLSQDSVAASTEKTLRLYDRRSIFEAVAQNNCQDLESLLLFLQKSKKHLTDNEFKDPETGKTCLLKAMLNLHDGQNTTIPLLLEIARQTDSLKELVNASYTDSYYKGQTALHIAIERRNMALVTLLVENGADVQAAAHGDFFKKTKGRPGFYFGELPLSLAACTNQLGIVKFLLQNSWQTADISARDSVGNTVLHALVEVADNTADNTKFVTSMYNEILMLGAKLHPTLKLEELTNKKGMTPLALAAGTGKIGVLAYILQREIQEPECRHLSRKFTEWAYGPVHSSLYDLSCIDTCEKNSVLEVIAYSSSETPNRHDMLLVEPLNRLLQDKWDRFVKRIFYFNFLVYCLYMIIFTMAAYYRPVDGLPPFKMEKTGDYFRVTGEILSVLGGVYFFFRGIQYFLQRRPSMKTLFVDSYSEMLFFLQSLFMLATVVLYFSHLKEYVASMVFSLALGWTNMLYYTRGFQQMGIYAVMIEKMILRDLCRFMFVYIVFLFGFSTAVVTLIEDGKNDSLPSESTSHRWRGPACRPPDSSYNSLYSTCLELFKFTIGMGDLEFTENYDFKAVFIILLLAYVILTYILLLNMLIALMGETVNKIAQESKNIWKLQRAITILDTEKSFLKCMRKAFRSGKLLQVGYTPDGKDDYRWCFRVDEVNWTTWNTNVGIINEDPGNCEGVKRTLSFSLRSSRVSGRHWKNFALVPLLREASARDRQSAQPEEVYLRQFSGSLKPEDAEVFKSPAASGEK
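TRPV1-expressing cells were cultured overnight at 35.5C and loaded with Fluo-8 calcium dye for 40 to 90 min at room temperature. After a 10 s baseline, compound was added and calcium influx was read kinetically for 3 min (ex 480/em 520 nm).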
The depositor's hits bear a star; u = inconclusive; x = not tested or not shown; & = joins results of further samples; [ ] = dose if it differs, or a comment.

Compound | gsp agonist | Sfp inh | gsp antag | Menin MLL FP FL | ClpP mod | CtBP-E1A blk | TRPV1 PAM
CCOc1ccc(-n2cnnn2)cc1S(=O)(=O)NCCc1ccc(OC)c(OC)c1 | -2% | 26% | 7% | 1.2 | -3.4% | -9 | 2
CCN1CCN(CCCN(Cc2ccco2)C(=S)Nc2cc(Cl)ccc2C)CC1 | -5%[15.4 µM] | -87% | 25% | -3.7 | x | -3 | -1
CCCNc1ncnc2onc(C)c12 | u | 7% | -1% | 0.2 | 2.0%&-1.3% | x | -6
O=C(CN1CCSC1=O)N1CCN(S(=O)(=O)c2ccc(Cl)cc2)CC1 | 6% | x | -2% | x | -3.7% | 16 | 0
N#CC1(c2ccc(NC(=O)c3ccccc3)cc2)CCCC1 | x | -13% | x | 8.0 | x | x | -29
COC(=O)C1CCN(C(=O)c2sc3nc(-c4ccc(F)cc4)cn3c2C)CC1 | 5% | -8% | -3% | -3.2 | 0.5% | -1 | 10
Cc1ccc(C)c(OCC(=O)NC(Cc2c[nH]c3ccccc23)C(=O)O)c1 (configuration not stated) | -50%[inhibitor] | -5% | -1% | 0.2 | x | 1 | 3
COc1ccccc1C(=O)NNC(=O)C(=O)Nc1ccc(C)c(Cl)c1 | 2%[15.4 µM] | 24% | 7% | 7.6 | x | -7 | 17
COc1cc(CCC(=O)N2CCN(c3ccc(N4CCOCC4)nn3)CC2)cc(OC)c1OC | x | 10% | x | 1.4 | x | x | 0
CC(C)c1cc(=O)[nH]c(SCC(=O)NC2CCCC2)n1 | -45%[inhibitor] | 4% | -6% | x | 0.8% | 6 | 18
COc1ccc(CCNC(=O)C2CC3Cn4c(nc5cc(Cl)c(Cl)cc54)C3N2C)cc1 (configuration not stated) | x | 17% | -10% | 3.4 | 0.6% | 4 | 7
COc1cccc(CC(NC(C)=O)C(=O)NC2CCN(C(=O)c3ccncc3)CC2)c1OC (configuration not stated) | 10%[15.4 µM] | 24% | -9% | -1.1 | x | -5 | 10
Cc1ccc(N2CCN(/N=C/c3cccnc3)CC2)cc1 | 29% | 8% | 3% | -0.1 | x | -29 | 12
CCCCCCc1cc2cc(S(=O)(=O)c3ccc(F)cc3)c(=O)oc2cc1O | 18% | -3% | u | 17 | 28µM* | 4 | -18
C[C@]12C(=O)N(c3cccc(Cl)c3)C(=O)N1[C@@H]1c3ccccc3OC[C@@H]1[C@H]2c1ccccc1 | 18% | x | -4% | x | -0.7% | -3 | x
CCn1c(COc2ccc(OC)cc2)nc2ccccc21 | 1% | 18% | 2% | -0.6 | -1.6% | 2 | -12
O=C(NN=Cc1ccccc1C(=O)O)C(=O)NN=Cc1ccccc1C(=O)O | -49%[inhibitor] | x | 4% | x | x | -27 | x
O=c1[nH]c2c(=O)[nH]cnc2nc1-c1ccccc1 | 2%[15.4 µM] | x | -9% | x | x | -16 | x
O=C(CNS(=O)(=O)c1cccc2nonc12)NCc1ccc(F)cc1 | 18% | 4% | -1% | -1.1 | -4.3% | 7 | -7
O=C(Nc1nnc(SCc2cccnc2)s1)C1CC(=O)N(c2ccc(F)cc2)C1 (configuration not stated) | u | -21% | -13% | x | -5.8% | 14 | 3
COc1ccc(C(=O)C2CCCN(C(=O)c3ccc(OC)o3)C2)c(C)c1 (configuration not stated) | -5%[15.4 µM] | x | -9% | x | -2.2% | 2 | x
COc1cccc(NC(=O)COC(=O)CC(NC(N)=O)c2ccc(Cl)cc2)c1 (configuration not stated) | -28% | 7% | -8% | 0.1 | -2.1% | 1 | 2
O=C(Nc1ncccc1Cl)c1ccccc1F | 0% | -13% | 15% | 4.8 | 0.5% | 6 | 0
CN=C1S/C(=C\c2ccc(N3CCOCC3)c(F)c2)C(=O)N1C | -3% | 21% | 7% | 1.3 | -2.0% | -4 | 6
Cc1ccc(C(=O)Nc2nnc(S(=O)(=O)N3CCN(c4ccc(F)cc4)CC3)s2)cc1 | -13% | 9% | -1% | x | -4.1% | -11 | 22
Cc1onc(-c2ccccc2)c1C(=O)Nc1nnc(N(C)Cc2ccccc2)s1 | 6% | 0% | -19% | 0.8 | 2.2% | 20 | 8
COc1cc(C=NNc2ccc(S(=O)(=O)Nc3ccccc3C(=O)O)cc2[N+](=O)[O-])ccc1O | -38%[inhibitor] | x | -10% | x | -0.1% | x | x
Nc1nc(SCC(=O)NCCC(c2ccccc2)c2ccccc2)n[nH]1 | 4% | 6% | 0% | 2.1 | 4.5% | 2 | -7
CCN1CCN(CCc2nc3cc([N+](=O)[O-])ccc3n2C)CC1 | 7%[15.4 µM] | 1% | 6% | 3.2 | x | -13 | -5
COc1ccccc1CNC(=O)COc1ccc(Br)c(C)c1 | 26% | -11% | -11% | 4.1 | 0.9% | 14 | -15
O=C(NC1CCCCC1)C(c1ccc(F)cc1)N(Cc1ccco1)C(=O)c1ccccn1 (configuration not stated) | -43%[inhibitor] | 19% | -9% | -4.6 | x | -9 | -42
CC(C)OCCCNC(=O)CCC(=O)NNc1nc2ccccc2c2nc(-c3ccccc3)nn12 | 0% | 4% | -2% | 0.1 | -1.1% | -12 | 13
COc1cc(C#Cc2ccc3cc(C(C)(C)O)oc(=O)c3c2)cc(OC)c1 | 25% | x | -3% | x | 4.1% | 1 | 2
COC(=O)C1CCc2c(ccc3c2CCCC3)C1=O (configuration not stated) | -3% | x | -8% | x | x | 9 | x
Cc1nc2ccccc2c2oc(C(=O)NCCCN3CCC(C)CC3)cc12 | u | -2% | 10% | 2.8 | 4.3% | -25 | x
Cc1ccc(Oc2ccc(-c3nc(N)nc(N)n3)cc2)cc1C | 7% | 12% | -23% | 8.2 | -0.9% | 0 | -1
N=C1S/C(=C\c2ccc(-c3ccccc3C(=O)O)o2)C(=O)N1c1ccc2c(c1)OCO2 | -11%[15.4 µM] | u | -3% | u | x | -9 | 6
CC(C)Oc1ccc(CCc2n[nH]c(=S)n2-c2ccccc2)cc1 | -36%[inhibitor] | 3% | -4% | 1.7 | 2.0% | -25 | -2
Cc1ccccc1C(=O)NCCCNC(=O)c1cnccn1 | 6%[15.4 µM] | 15% | 3% | x | x | 3 | 2
O=C(Cc1ccccn1)c1ccncc1 | 8% | x | 1% | x | x | -11 | x
COc1ccc(NC(=O)c2cccc3c2C(=O)N(CC2CCCO2)C3)cc1OC (configuration not stated) | -58%[inhibitor] | 17% | -7% | -2.0 | 0.2% | -17 | 0
CCCN1C2CCCC1CC(NC(=S)NCCCOCC)C2 (configuration not stated) | 22% | 6% | 24% | -3.5 | 0.8% | 14 | -8
c1cc2c(cc1C1CCCN1)OCCCO2 (configuration not stated) | -3% | -5% | 9% | 3.3 | 1.2% | 1 | -1
S=c1[nH]nc(-c2ccc3ccccc3n2)n1-c1ccccc1Cl | 7%[15.4 µM] | 8% | -20% | 2.3 | x | -12 | -16
CN(C)c1ccc(NC(=O)CSc2nc(C3CC3)nc3ccccc23)cc1 | -5%[15.4 µM] | -22% | -10% | -1.5 | x | 2 | 12
CC(C)(C)NC(=O)NCCc1ccccc1 | 20% | 7% | 6% | 1.1 | x | 1 | -6
CCCS(=O)(=O)N1CCC(C(=O)Oc2ccc(OC)cc2)CC1 | u | 22% | -10% | 6.8 | x | 6 | 13
COc1ccc(N(CC(=O)NC2CCCCCC2)S(=O)(=O)c2c(C)nn(C)c2C)cc1 | -55%[inhibitor] | -1% | -7% | -1.8 | -2.0% | -11 | 2
CCNC(=S)NNC(=O)c1cc(Br)cs1 | 11% | -8% | 0% | -8.5 | 17% | -3 | 4
C[C@H](CO)N1C[C@H](C)[C@@H](CN(C)Cc2ccc3c(c2)OCO3)Oc2c(NS(=O)(=O)c3cn(C)cn3)cccc2C1=O | x | x | -3% | x | -20% | 4 | x
COc1ccc(-c2oc3cc(O)c(OC)c(O)c3c(=O)c2OC)cc1 | x | -6% | -12% | -6.5 | -0.2% | -19 | -3
CC(C)OC(=O)N(C)C[C@@H]1OCc2cnnn2CCCC(=O)N([C@H](C)CO)C[C@H]1C | -18% | x | x | x | -1.3% | -18 | x
CC1CCN(S(=O)(=O)c2ccc3ccccc3c2)CC1 | -28% | 4% | -17% | -0.6 | -3.3% | 10 | -4
COc1ccc(/C=C/c2nc(S(=O)(=O)c3ccccc3)c(N(C)C)o2)cc1 | u | 7% | u | x | u | -23 | 0
COc1ccc(NC(=O)C2CCC(=O)N2)cc1 (configuration not stated) | 15% | 16% | 8% | -0.9 | -2.7% | 1 | 22
Cc1ccc2oc(C(=O)N3CCN(Cc4ncccc4C)CC3)c(C)c2c1 | -32%[inhibitor] | 15% | 9% | x | -1.6% | -2 | -10
CCOCCCNC(=O)c1c(C)[nH]c(C(=O)OCC)c1C | 8% | 13% | 12% | 2.0 | -3.5% | -11 | -16
O=C(CNC(=O)c1ccc(N2CCCC2=O)cc1)Nc1ccc(F)c(F)c1F | 10% | x | 5% | x | x | -25 | x
O=C(COc1ccccc1Cl)Nc1ccc(S(=O)(=O)N2CCOCC2)cc1 | -1% | -8% | 1% | 1.3 | x | -23 | -2
Cc1ccc(S(=O)(=O)N(C)CC(=O)Nc2ccc(C)cn2)cc1 | 1% | x | -4% | x | -1.7% | 3 | -19

Next part.
Compound | gsp agonist | Sfp inh | gsp antag | Menin MLL FP FL | ClpP mod | CtBP-E1A blk | TRPV1 PAM
COC(=O)c1ccc(CSc2nc3ccccc3c(=O)n2-c2ccc(OC)c(OC)c2)o1 | -3% | u | 7% | -0.4 | -5.4% | 11 | -6
c1ccc(-c2csc3ncnc(-n4cnc5ccccc54)c23)cc1 | -30%[inhibitor] | 23% | -1% | 1.3 | u | -4 | -32
COc1cccc(NC2=NCCCCC2)c1 | 12%[15.4 µM] | -23% | 12% | 0.3 | x | 1 | 11
CCC(C)NC(=O)CNC(=S)N(Cc1ccc(F)cc1)C1CCCCC1 (configuration not stated) | -2%[15.4 µM] | -2% | 14% | -0.3 | x | 3 | -11
O=C(NCCCn1ccnc1)Nc1ccc(Cl)c(Cl)c1 | -29% | 15% | 6% | 0.0 | -0.8% | -17 | 12
